Source: PubChem (National Center for Advancing Translational Sciences (NCATS))
StopGo reporter: lowers the luciferase signal of an FMDV 2A StopGo reporter; AID 1159524; human cells with a luciferase reporter of 2A StopGo recoding; control for the full effect not named in the record; Potency, µM (series often up to 57.9 µM), without a hit: at the highest dose signal change, negative = less light; hit rate 1.2% among 410,000; active = well fitted falling curve with a large enough effect; inconclusive = small, poorly fitted or top-dose-only effect; inactive = no such curve, though single readings can be large or run the other way; tested in HEK293T cells; note: % is set by controls: 0 for no effect and ±100 for the full control effect; nearly all actives have a fitted effect of over 45% in size; luciferase light after 4 h
MARV entry inh: blocks Marburg virus binding to or entry into cells; Potency, µM (series often up to 37.8 µM), for the others: at the highest dose activity change, negative = inhibition, hits mostly inhibitors; AID 540276; Marburg virus pseudotyped entry inhibition, cell reporter; control for the full effect not named in the record; about a third of the inactives were read at about 46 µM; hit rate 1.8% among 300,000; active = well fitted inhibition curve with a large enough effect; inconclusive = small, poorly fitted or top-dose-only effect, or effect the other way; inactive = flat fitted curve, though single readings scatter; tested in HEK293 cells; about a fifth of its hits are not listed in these tables; note: % is set by controls: 0 for no effect and ±100 for the full control effect; luciferase read-out
Lassa entry inh: blocks Lassa virus binding to or entry into cells. Lassa virus pseudotype entry inhibition, cell reporter; control for the full effect not named in the record. Potency, µM (top dose mostly 37.9 µM), for inactives: top-dose activity change, negative = inhibition, hits mostly inhibitors. hit rate 1.2% among 300,000. AID 540256; active means well fitted inhibition curve with a large enough effect; inconclusive means small, poorly fitted or top-dose-only effect, or effect the other way; inactive means flat fitted curve, though single readings scatter; tested in HEK293 cells; note: % is set by controls: 0 for no effect and ±100 for the full control effect; nearly all actives have a fitted effect of over 50% in size; luciferase read-out
NS1 inh: blocks influenza NS1 protein function | Potency, µM (series often up to 46.1 µM), for the others: top-dose activity, positive = more growth | S. cerevisiae slowed by influenza A NS1, growth recovery by OD600 | hit rate 0.4% among 270,000; note: actives are rising curves; nearly all actives have a fitted effect of over 50% in size
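OD600 was taken as the measure of yeast growth restored by compound in an NS1-expressing S. cerevisiae strain. Cells had been washed out of glucose medium and diluted 1:100 into galactose -URA medium, pH 6.0.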
SARS PLP yeast: blocks SARS-CoV papain-like protease in a yeast assay; S. cerevisiae expressing SARS-CoV PLpro, growth rescue; control for the full effect not named in the record; Potency, µM (doses to about 32.9 µM), inactives show at the highest dose activity, positive = growth rescue; hit rate 0.19% among 330,000; note: 0% is about no effect; nearly all actives have a fitted effect of over 55% in size; growth read by luminescence after 48 h
RE007 growth inh: less growth of the S. pombe RE007 Vpr strain | S. pombe RE007 Vpr strain, BacTiter-Glo ATP luminescence, 24 h; control for the full effect not named in the record | Potency, µM (highest dose often 92.2 µM), inactives show top-dose activity change, negative = less growth | hit rate 0.21% among 360,000 | AID 651644; active = well fitted falling curve with a large enough effect; inconclusive = small, poorly fitted or top-dose-only effect; inactive = no such curve, though single readings can be large or run the other way;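 note: % is set by controls: 0 for no effect and ±100 for the full control effect; nearly all actives have a fitted effect of over 50% in size; the assay follows cell death caused by Vpr and the record does not say whether a fall means rescue or toxicity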
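Fission yeast strain RE007, carrying one chromosomally integrated HIV-1 vpr copy, was seeded at OD 0.01 in PMG+AL medium with 23 nL pinned compound. After 24 h at 30 °C and 99% humidity, viability was read by BacTiter-Glo luminescence.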
Cruzain noTriton: inhibitors of Trypanosoma cruzi cruzain without detergent. P25779. purified cruzain, Z-FR-AMC fluorescence, no detergent. Potency, µM, without a hit: max response, negative = inhibition, actives largely listed as inhibitors. hit rate 2.3% among 200,000. AID 1476; active = well fitted curve in the direction sought with a large enough effect; inconclusive = small, poorly fitted or top-dose-only effect, or another doubt; inactive = no such curve, though single readings can be large; an effect the other way counts as inactive or inconclusive;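 note: plate controls were enzyme without inhibitor for no effect and buffer without enzyme for full effect; nearly all actives have a fitted effect of over 40% in size; top concentration of the series not given in the record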
Target sequence (P25779 123-467 limits assumed): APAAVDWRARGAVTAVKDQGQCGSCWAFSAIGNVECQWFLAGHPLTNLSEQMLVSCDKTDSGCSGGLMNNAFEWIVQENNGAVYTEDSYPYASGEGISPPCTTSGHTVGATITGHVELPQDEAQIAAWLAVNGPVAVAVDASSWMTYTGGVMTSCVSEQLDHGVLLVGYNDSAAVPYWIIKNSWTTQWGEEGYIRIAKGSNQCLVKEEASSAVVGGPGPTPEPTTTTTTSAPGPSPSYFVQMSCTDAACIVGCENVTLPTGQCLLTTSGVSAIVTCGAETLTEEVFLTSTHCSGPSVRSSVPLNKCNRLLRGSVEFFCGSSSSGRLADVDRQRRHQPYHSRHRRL
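Purified cruzain at 1.5 nM, pre-incubated 15 min with compound at room temperature in 100 mM sodium acetate pH 5.5, 5 mM DTT, 0.00005% Triton X-100. Reaction started with 2 uM Z-FR-AMC; AMC fluorescence increase over 60 s gives rate.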
Cruzain inh Det: inhibitors of Trypanosoma cruzi cruzain with detergent; purified cruzain, Z-FR-AMC fluorescence, 0.01% Triton; Potency, µM, without a hit: max response, negative = inhibition, most hits filed as inhibitors; hit rate 0.43% among 200,000; AID 1478; active = well fitted curve in the direction sought with a large enough effect; inconclusive = small, poorly fitted or top-dose-only effect, or another doubt; inactive = no such curve, though single readings can be large; an effect the other way counts as inactive or inconclusive;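 note: plate controls were neutral wells for no effect and buffer without enzyme for full effect; nearly all actives have a fitted effect of over 40% in size; top concentration of the series not given in the record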
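Purified cruzain (1.5 nM final) was preincubated with compounds for 15 min at room temperature in 100 mM sodium acetate pH 5.5, 5 mM DTT, 0.01% Triton X-100. Reaction started with 2 uM Z-FR-AMC; AMC fluorescence change over 60 s gave activity.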
The depositor's hits bear a star; ? = inconclusive; . = no result given; [ ] = dose if it differs, or a comment. Unless noted, calls come from the whole dose curve; as a rule, active means well fitted rising curve with a large enough effect; inconclusive means small, poorly fitted or top-dose-only effect; inactive means no such curve, though single readings can be large or run the other way. Potency is the fitted concentration of half-maximal effect.

SMILES | StopGo reporter | MARV entry inh | Lassa entry inh | NS1 inh | SARS PLP yeast | RE007 growth inh | Cruzain noTriton | Cruzain inh Det
CCN(CC)CCN1C(=O)C(=O)/C(=C(/O)c2ccc(C)cc2)C1c1cccnc1 (configuration not stated) | -1% | . | . | -5% | -3% | 17% | . | .
COc1cc(C(Nc2ccccn2)c2ccc3ccc(C)nc3c2O)cc(OC)c1O (configuration not stated) | 35µM* | ? | ? | ? | 5% | 16% | -2% | -8.8%
Cc1ccccc1OCC(=O)OCC(=O)NC1CCCCCC1 | -9% | 9% | -3% | . | -1% | 2% | . | .
CCOc1ccc(S(=O)(=O)NCCC(=O)N2CCC(Cc3ccccc3)CC2)cc1 | -23% | ? | ? | -22% | -1% | 9% | . | .
CN(C)CCOC1(Cc2ccc(F)cc2)CCC(C(C)(C)C)CC1 (configuration not stated) | -28% | 11µM* | ? | . | . | 7% | . | .
CCOC(=O)c1c(S(=O)(=O)N2CCCC(C(=O)Nc3ccccn3)C2)c(C)n(C)c1C (configuration not stated) | -17% | . | 2%[46.1 µM] | . | . | . | -11% | 2.4%
CCNC(=O)c1ccccc1-c1nc(-c2ccccc2OC)no1 | -11% | . | . | 3% | 0% | -2% | . | .
O=c1c2ccccc2nc(/C=C\c2ccccc2[N+](=O)[O-])n1-c1ccccc1O | ? | ? | 7.9µM* | 8% | 0% | 1% | . | .
Nc1nc(-c2cccc(NS(=O)(=O)c3ccccc3)c2)cs1 | . | -16% | -21% | ? | 2% | 2% | 5% | -7.8%
CCc1nnc(NCC(=O)N2CCc3ccccc32)s1 | 10% | ? | -1% | 8% | -5% | 19% | -25% | 4.0%
CCCCCCn1c(N2CCCC2)nc2c1c(=O)[nH]c(=O)n2C | ? | 0% | 10% | 0% | -6% | 5% | . | .
CCN(CC)S(=O)(=O)c1ccc(OC)c(NC(=O)OCc2ccccc2)c1 | -5% | -11%[46.1 µM] | ? | -5% | -2% | 15% | . | .
O=C(N/C(=C/c1ccc(Br)cc1)c1nc2ccccc2[nH]1)c1ccco1 | . | 1% | 0% | 6% | -8% | 4% | -6% | 6.7%
Cc1ccnc2nc(C(=O)Nc3nc4ccccc4s3)nn12 | ? | ? | ? | 3% | -2% | -16% | . | .
COc1ccccc1C(=O)Nc1ccccc1N1CCN(C(=O)c2ccc(Cl)cc2)CC1 | ? | ? | ? | 9% | . | 5% | . | .
O=C(Nc1cc(C(F)(F)F)ccc1Cl)C(Sc1n[nH]c(=O)[nH]c1=O)c1ccccc1 (configuration not stated) | 45%[activator] | ? | 10% | ? | 0% | 0% | . | .
COc1ccccc1NC(=S)NCCc1ccc(S(N)(=O)=O)cc1 | -13% | -6%[14.2 µM] | 3% | 1% | 0% | 27% | . | .
Cc1ccccc1NC(=O)Cc1nc(COC(=O)c2ccc([N+](=O)[O-])cc2)cs1 | 8% | 20% | 7% | . | 3% | 6% | . | .
Cc1ccccc1S(=O)(=O)N(CC(O)CN1CCCCC1)c1ccccc1 (configuration not stated) | 3% | . | . | 5% | 0% | 14% | . | .
CC1CCCCC1NC(=O)Cn1ncc2ccccc21 (configuration not stated) | -1% | . | . | 3% | 4% | 7% | 8% | 1.7%
CC(=O)c1ccc(-c2cccc(-c3cc(=O)oc4ccc(C(C)(C)C)cc34)c2)cc1 | ? | . | . | . | -17% | 1% | 28µM* | -0.6%
O=C(Cn1cnc2c(nnn2-c2cccc(F)c2)c1=O)Nc1ccc2c(c1)OCCO2 | -12% | -19% | 2% | 3% | -6% | -7% | . | .
CC(=O)N1c2ccc(S(=O)(=O)N3CCC(C(=O)Nc4cccc(Cl)c4)CC3)cc2CC1C (configuration not stated) | ? | . | . | ? | 19% | 13% | . | .
CCn1c2ccccc2c2cc(NC(=O)CSc3nnc(-c4ccccc4)o3)ccc21 | -19% | -19% | ? | 1% | -19% | -3% | 20µM* | 2.9%
O=C(NCc1ccc2c(c1)OCO2)c1ccc(CSCc2ccc(Cl)cc2)o1 | -21% | 8% | -12% | 16% | -4% | -1% | 10% | -6.5%
CCCCOCc1cc(CN2CCN(c3cccc(Cl)c3)CC2)c(O)c2ncccc12 | 0% | . | ? | . | . | . | 11% | -1.2%
CCc1ccc2c(c1)C(c1ccncc1)=NNC(c1ccccc1)=N2 | 38%[activator] | . | . | -6% | 0% | -13% | . | .
O=C(NN=Cc1cccc([N+](=O)[O-])c1)c1cccc2ccccc12 | -19% | 26% | -10% | . | . | 0% | . | .
Cc1ccc(NC(=O)COC(=O)[C@@H]2CC(O)CN2S(=O)(=O)c2ccc3c(c2)OCCO3)cc1 (some centres not stated) | -19% | ? | 22% | . | 5% | -6% | . | .
c1ccc(-c2csc(=Nc3cccnc3)n2CC2CCCO2)cc1 (configuration not stated) | -21% | ? | 1% | -7% | -1% | 2% | 8% | -6.2%

The closing 6 entries of the section above open the next one:
SMILES | StopGo reporter | MARV entry inh | Lassa entry inh | NS1 inh | SARS PLP yeast | RE007 growth inh | Cruzain noTriton | Cruzain inh Det
O=C(NCc1ccc2c(c1)OCO2)c1ccc(CSCc2ccc(Cl)cc2)o1 | -21% | 8% | -12% | 16% | -4% | -1% | 10% | -6.5%
CCCCOCc1cc(CN2CCN(c3cccc(Cl)c3)CC2)c(O)c2ncccc12 | 0% | . | ? | . | . | . | 11% | -1.2%
CCc1ccc2c(c1)C(c1ccncc1)=NNC(c1ccccc1)=N2 | 38%[activator] | . | . | -6% | 0% | -13% | . | .
O=C(NN=Cc1cccc([N+](=O)[O-])c1)c1cccc2ccccc12 | -19% | 26% | -10% | . | . | 0% | . | .
Cc1ccc(NC(=O)COC(=O)[C@@H]2CC(O)CN2S(=O)(=O)c2ccc3c(c2)OCCO3)cc1 (some centres not stated) | -19% | ? | 22% | . | 5% | -6% | . | .
c1ccc(-c2csc(=Nc3cccnc3)n2CC2CCCO2)cc1 (configuration not stated) | -21% | ? | 1% | -7% | -1% | 2% | 8% | -6.2%
Cc1cc(C)n(-c2ccc(C(=O)Nc3ccc4c(c3)OCO4)cc2)n1 | -15% | 7% | ? | -111% | -1% | 29% | 0% | -3.8%
COc1ccc(C)cc1NC(=O)C(NCC1CCCO1)c1ccccc1 (configuration not stated) | -9% | 4% | 7% | -13% | -8% | 5% | -4% | -2.4%
CC(=O)Nc1cc(=O)c2cccnc2[nH]1 | 1% | 2%[46.1 µM] | 23%[46.1 µM] | . | . | -12% | . | .
Cc1ccc(OCC(=O)NNC(=O)c2cc3ccccc3o2)cc1 | -8% | -10%[46.1 µM] | 0% | 14% | 5% | -14% | ? | 0.4%
NC(CSC1(c2ccccc2)c2ccccc2-c2ccccc21)C(=O)O (configuration not stated) | -21% | 12% | 27% | . | . | 5% | . | .
COc1cccc(OC)c1NC(=O)Cn1nc(-c2ccc3c(c2)OCCO3)ccc1=O | -4% | 0%[46.1 µM] | . | 9% | -1% | -1% | . | .
CC(=O)Nc1ccc(NC(C)=O)s1 | 11% | -9% | -1% | 1% | -8% | 4% | 0% | 0.4%
CC1CCCN(C2=C(NS(=O)(=O)c3ccc(Br)cc3)C(=O)c3ccccc3C2=O)C1 (configuration not stated) | ? | -24%[46.1 µM] | 15% | -20% | -11% | -4% | . | .
O=C(c1ccco1)N1CCN(S(=O)(=O)/C=C/c2ccccc2)CC1 | 0% | -32%[46.1 µM] | -6%[46.1 µM] | . | -6% | -13% | . | .
CCN(C(=O)COC(=O)CSc1ccccc1)c1c(N)n(Cc2ccccc2)c(=O)[nH]c1=O | -25% | -20% | -6% | . | 3% | -21% | . | .
COc1ccc(CNC(=O)CCCN2C(=O)CSc3c2c(C)nn3-c2ccccc2)cc1 | ? | . | -19%[46.1 µM] | . | . | . | ? | -5.0%
COc1ccc(C(=O)CC(=O)C(=O)Nc2cccc(C(C)=O)c2)cc1 | 4% | 23%[46.1 µM] | -1%[46.1 µM] | 6% | 0% | -5% | . | .
O=C(Nc1cccc2c1C(=O)NC2=O)c1cccnc1Cl | -4% | 6%[46.1 µM] | -3%[46.1 µM] | . | 0% | -5% | . | .
Cc1ccc(CNC(=O)C2CCCN2C(=O)Nc2cccc(Cl)c2)cc1 (configuration not stated) | 0% | . | . | 1% | 10% | 0% | . | .
Fc1ccc(/C=N\Nc2cccc(F)c2)cc1 | -13% | 16%[46.1 µM] | 7%[46.1 µM] | 19% | 0% | 10% | . | .
CCCCOc1ccc(C2C(=O)N(C3CCCCC3)CC(=O)N2CCCC)cc1 (configuration not stated) | -22% | . | -25%[46.1 µM] | . | . | . | 2% | 1.1%
Cc1ccc(NC(=O)CCCn2c(=S)[nH]c3ccsc3c2=O)cc1C | -17% | . | . | 20% | 0% | 21% | . | .
CC(Cc1ccccc1)NC(=O)C(c1ccc(N)cc1)c1ccc(N)cc1 (configuration not stated) | -2% | . | . | 28% | 1% | -6% | . | .
Cc1ccc(C(=O)N/C(=C/c2cccs2)C(=O)NCCCn2ccnc2)cc1 | 37%[activator] | 0% | 0% | 3% | 9% | -8% | 19% | -3.9%

Compound profiles (already shown). Screens in order: StopGo reporter, MARV entry inh, Lassa entry inh, NS1 inh, SARS PLP yeast, RE007 growth inh, Cruzain noTriton, Cruzain inh Det
Record of Cc1ccc(C(=O)N/C(=C/c2cccs2)C(=O)NCCCn2ccnc2)cc1 : 37%[activator], 0%, 0%, 3%, 9%, -8%, 19%, -3.9%
Record of CCCCOc1ccc(C2C(=O)N(C3CCCCC3)CC(=O)N2CCCC)cc1 (configuration not stated) : -22%, ., -25%[46.1 µM], ., ., ., 2%, 1.1%
Record of CC(Cc1ccccc1)NC(=O)C(c1ccc(N)cc1)c1ccc(N)cc1 (configuration not stated) : -2%, ., ., 28%, 1%, -6%, ., .
